# Source: PubChem BioAssay (several laboratories)
# LANA-H2B inh: blocks KSHV LANA binding to histone H2A/H2B; Q9QR71; cell-free LANA-H2A/H2B peptide, fluorescence polarization; inhibition, % (test concentration not listed); 320,000 tested, 0.6% active; AID 2629; in the data active means inhibition mostly above about 10%, no sharp cut-off; inactive means mostly below about 6.7%;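 further: stock transfer was 7.5 nL into about 10 µL; 0% = median of vehicle wells and 100% = median of positive control wells; one replicate is shown; the record names a cut of 25% in any replicate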
# Beta2AR agonist: human beta-2 adrenergic receptor agonism by FAP. P07550. AID 504454. Am2.2-beta2AR cells, FAP receptor internalization, flow cytometry; reference of the scale not given here. response, % (test concentration not listed). 340,000 tested, 0.43% active;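 active means response above a set limit, near 3 SD of response in nonfluorescent compounds, cut at about 42% in these data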;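 further: stock transfer was 100 nL into about 11 µL; a reference agonist was the positive control; negative values mostly stem from fluorescent compounds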
# Target sequence (P07550 whole entry, looked up): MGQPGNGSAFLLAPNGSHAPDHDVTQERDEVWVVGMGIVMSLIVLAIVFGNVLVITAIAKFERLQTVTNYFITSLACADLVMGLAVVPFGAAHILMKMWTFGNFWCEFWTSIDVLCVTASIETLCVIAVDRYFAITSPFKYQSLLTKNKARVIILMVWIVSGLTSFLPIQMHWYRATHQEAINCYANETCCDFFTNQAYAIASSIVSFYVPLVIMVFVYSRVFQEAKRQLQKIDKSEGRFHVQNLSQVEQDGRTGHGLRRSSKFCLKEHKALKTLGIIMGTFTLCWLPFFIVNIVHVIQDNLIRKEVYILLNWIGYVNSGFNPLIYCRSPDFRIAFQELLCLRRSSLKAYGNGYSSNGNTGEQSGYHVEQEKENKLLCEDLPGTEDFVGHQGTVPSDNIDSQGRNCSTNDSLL
# RanGTP-Imp inh: disruptors of Ran-importin-beta complex formation – biochemical, FRET, CFP-Ran, YFP-importin-beta, homogeneous, primary screen. 300,000 tested, 1.1% active. AID 2216. inhibition, % (concentration not given with the values). cell-free CFP-Ran/YFP-importin-beta FRET ratio;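 active means most replicates above 15%; inconclusive means exactly half above 15%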;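 further: 0% = DMSO wells and 100% = Ran loaded with GDP instead of GTP; wells of about 40 µL received 100 nL stock; the first replicate is given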
# Vif A3G: HIV-1 Vif–A3G interaction blockers – biochemical, TR-FRET, GST-Vif 1-94, biotin-A3G peptide, dose response retest, primary screen (AID 1117319). TR-FRET GST-Vif / biotin-A3G peptide binding; higher % means a stronger effect; test concentration not given here; strong numbers were not always called active. inhibition, %; hits with a dose series show IC50 in µM. 260,000 tested, 0.57% active;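 active means above the screen mean plus three standard deviations and confirmed in dose response; inconclusive means results disagree or hit not tested in dose response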;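 further: Vif residues 1-94 fused to GST binding biotinylated APOBEC3G peptide 110-148; 0% = full assay without inhibitor and 100% = GST in place of GST-Vif; retest series ran down from 100 µM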
# HNF4A DNA FP: change in binding of human HNF4 alpha to DNA; HNF4a-FITC DNA binding, fluorescence polarization, 1 h; AID 1224865; P41235; 360,000 tested, 0.3% active; activity change, % at 10 µM; in the data active means activity change above about 30%, passing the limit was not always enough;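 further: controls were the assay level and a saturating level of protein; the project sought stronger binding though the title names inhibitors; some compounds called inactive have numbers as strong as hits; positive values seem to mean higher polarization but the record does not say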
# Target sequence (P41235 whole entry, looked up): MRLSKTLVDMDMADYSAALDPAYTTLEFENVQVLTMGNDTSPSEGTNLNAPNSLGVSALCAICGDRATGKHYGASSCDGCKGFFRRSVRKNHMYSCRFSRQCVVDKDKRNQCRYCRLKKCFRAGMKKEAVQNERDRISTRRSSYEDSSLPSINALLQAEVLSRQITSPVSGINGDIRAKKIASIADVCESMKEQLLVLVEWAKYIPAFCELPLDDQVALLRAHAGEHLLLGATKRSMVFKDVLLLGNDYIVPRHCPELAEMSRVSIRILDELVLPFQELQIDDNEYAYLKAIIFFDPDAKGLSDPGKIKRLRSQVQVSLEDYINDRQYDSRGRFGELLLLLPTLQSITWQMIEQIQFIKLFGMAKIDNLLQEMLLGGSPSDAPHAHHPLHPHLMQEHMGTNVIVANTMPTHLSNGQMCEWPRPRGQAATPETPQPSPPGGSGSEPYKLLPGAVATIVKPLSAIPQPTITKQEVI
# ALR H2O2 inh: inhibitors of human sulfhydryl oxidase ALR; AID 485317; purified ALR, DTT oxidation, H2O2 HRP-luminol luminescence; P55789; inhibition, % (test concentration not listed); 290,000 tested, 3.8% active;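 active means mean and each replicate at 75% or more; inconclusive means only one of the two met; inactive means neither met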;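 further: stock transfer was 7.5 nL into about 7.5 µL; 0% = neutral wells and 100% = wells with inactivated enzyme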
# Target sequence (P55789 whole entry, looked up): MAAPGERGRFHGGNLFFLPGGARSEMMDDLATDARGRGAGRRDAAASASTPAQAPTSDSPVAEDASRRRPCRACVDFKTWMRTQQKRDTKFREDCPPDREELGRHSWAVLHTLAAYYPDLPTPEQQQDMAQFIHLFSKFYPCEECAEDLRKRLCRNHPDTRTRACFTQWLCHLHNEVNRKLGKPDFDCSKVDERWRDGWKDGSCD
# Calb FLC: C. albicans growth modulation with fluconazole; 300,000 tested, 0.57% active; C. albicans CaCi-2 (fluconazole-resistant clinical isolate) + fluconazole, Alamar Blue growth, 48 h; AID 1979; growth inhibition, % (no concentration beside the values);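 active means most replicates above 75%; inconclusive means exactly half above 75%; inactive means most below 75%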;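 further: all wells also contain fluconazole at 8 µg/ml as a sub-toxic cotreatment; 0% = median of DMSO wells and 100% = median of geldanamycin control wells; wells of about 8 µL received 7.5 nL stock; the first replicate is given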
# The depositor's hits bear a star; ? = inconclusive; · = no result given; & = joins results of further samples.
SMILES,LANA-H2B inh,Beta2AR agonist,RanGTP-Imp inh,Vif A3G,HNF4A DNA FP,ALR H2O2 inh,Calb FLC
O=C(NNC(=O)C12CC3CC(CC(O)(C3)C1)C2)c1ccccc1O,-1.5,-7,2.9,·,4.0,3,-3
Cc1ccc(-c2csc(NC(=O)C3CC(=O)N(Cc4ccco4)C3)n2)cc1 (centres undefined),-4.0,-1,-1.4,-4%,2.5,0,-28
Cc1ccc(S(=O)(=O)N(C)C)cc1NC(=O)C1CCCCC1,3.6,8,3.2,3%,1.0,-5,-4
Cc1ccc(/C=N/NC(=O)Cn2nnc(N)n2)cc1,0.7,-8,7.9,4%,1.0,-3,-10
CCCCSc1nc2c(cnn2-c2ccc(Cl)cc2)c(=O)[nH]1,0.3,5,0.1,-8%,-2.7,-2,-1
COc1ccc(NC(=S)N2CCC(C(=O)c3ccc(C)cc3)CC2)cc1,1.2,2,-1.7,·,0.5,·,-6
COc1ccc(-c2cc(C(F)(F)F)nc(-n3ccnc3C)n2)cc1,5.2,13,3.9,·,-0.6,-1,1
COc1cc(NC(=O)c2ccco2)c(C(=O)OCC(=O)c2c[nH]c3ccccc23)cc1OC,2.8,-2,3.3,·,3.1,9,1
COc1cc(SC)ccc1C(=O)NCc1ccccc1,1.7,-5,-3.1,·,2.7,-17,8
O=C(COC(=O)COc1ccccc1Cc1ccccc1)Nc1cccnc1Cl,-1.2,2,-4.5,·,2.6,-2,2
CCOc1ccc(/C=N/NC(=S)NC2CC3C=CC2C3)cc1 (centres undefined),-2.6,-2,2.0,3%,-0.1,0,2
Cc1ccccc1N1CC(C(=O)Nc2nnc(SCc3ccccn3)s2)CC1=O (centres undefined),-2.4,4,0.9,·,-3.8,-13,1
O=C(Nc1nc(-c2cccs2)cs1)c1ccc(S(=O)(=O)N2CCCC2)cc1,-7.3,14,-2.3,6%,1.8,2,-6
C=CCOC(=O)c1ccc(-n2cncn2)nc1,5.2,7,2.1,1%,3.1,-1,2
O=C(COC(=O)c1cc(-c2ccccc2)nc2ccccc12)NC1CC1,4.2,-7,·,·,2.3,0,·
Cc1ccc(S(=O)(=O)Nc2ccc3c(c2)OCCO3)c(C)c1NS(C)(=O)=O,-4.4,-7,-5.1,·,-3.6,-3,35
CC(=O)Nc1ccc(OCC(=O)NCc2ccc(C)cc2)cc1,-4.3,-1,0.4,0%,0.2,-16,-18
COc1cccc(-c2sc3ccc(OC)cc3c2-c2ccc(OCCN3CCCC3)cc2)c1,·,14,·,-16%,0.1,·,·
CN(Cc1c(C(=O)N/N=C/c2cccc(O)c2)nnn1-c1nonc1N)C1CCCCC1,-2.0,6,1.2,·,-1.1,31,·
CS(=O)(=O)N1CCN(C(=O)c2cccnc2)CC1,-3.6,1,-0.7,-5%,-0.6,-6,-5
O=C(NCCCC1CCCC1)C1CCC(=O)N(Cc2cccc(C(F)(F)F)c2)C1 (centres undefined),-0.4,-13,-2.9,·,-0.9,-8,-16
CCOC(=O)C(CCOc1cccc(CC)c1)C(=O)OCC,1.1,3,0.9,23%,-1.9,-4,27
Cn1c2ccccc2c2ncn(CCCN3CCOCC3)c(=O)c21,-0.6,-16,-3.5,31%,1.1,-19,-3
Cc1cc(C)cc(N2C(=O)N(c3ccccc3C)C3CS(=O)(=O)CC32)c1 (centres undefined),2.9,10,?,11%,-5.3,-20,-7
CCOc1ccccc1NC(=S)NC(=O)CCc1ccccc1,·,6,0.3,-3%,-0.5,·,-3
C/C(=C\c1cc2ccccc2o1)C1Nc2cccc3cccc(c23)N1,-1.6,-3,·,·,-0.4,-28,·
Cc1[nH]n(C(C)(C)C)c(=O)c1Sc1ccc(Cl)cc1,0.8,15,0.8,4%,2.9,2,29
COCCNC(=O)CCC1CCN(Cc2cccc(-c3ccc(C)o3)c2)CC1,-0.4,5,1.6,·,11,·,-1
O=C(/C=C/c1ccccc1Cl)N1CCOCC1,3.7,6,-2.5,-1%,-0.1,4,-11
COc1ccc(NC(=O)c2ccc3c(c2)N(C)CCS3)cc1,7.5,3,0.5,·,-2.6,-10,-16
CCCCOc1ccc(C(=O)Nc2ccc(C)cc2[N+](=O)[O-])cc1,5.9,-2,-1.6,0%,2.3,4,-1
CC(C)CNC(=S)NC(=O)c1ccc(Cl)cc1,4.2,-10,-2.6,-7%,3.3,3,-1
CCCCCCCCOC(=O)c1ccc(N)cc1,3.5,7,0.9,0%,1.3,-13,-42
CCc1nc(N2CCCC2)c(C#N)c2c1CCCC2,1.2,5,-1.3,3%,1.9,-3,-4
Cc1ccc(-c2nc3c(c(=O)c4ccccc4n3C)c(=O)n2-c2ccccc2)cc1,-0.6,-6,0.3,-36%,-1.5,-5,2
COCC(=O)N1CCc2ccc(NC(=O)c3ccccc3Cl)cc2C1,-2.4,3,3.6,·,-1.7,·,-6
Cc1[nH]c2ccccc2c1SCC(=O)O,6.2,-6,-3.6,13%,-1.7,34,-2
NCCN1CCN(CCN)CC1,·,6,-1.0,-6%,0.1,·,-7
O=C(c1cc(COc2ccccc2)on1)N1CCCC(OCc2cccnc2)C1 (centres undefined),2.8,0,-1.8,1%,1.6,-4,1
CC1(C)C(=O)N(OCc2ccccc2)C(C)(C)C(=O)N1OCc1ccccc1,-8.3,-8,5.8,5%,4.7,-1,-1
CS(=O)(=O)Cc1ccc(C(=O)NC2CCN(Cc3ccccc3)C2)cc1 (centres undefined),-0.3,-4,3.6,-7%,3.3,-3,0
Cc1ccn(C(CC(=O)c2ccc(Br)cc2)C(=O)O)n1 (centres undefined),17,3,3.8,10%,-4.3,28,-15
CCOC(=O)C(C)Oc1cccc2c(=O)n(CC(=O)N3CCc4ccccc43)ccc12 (centres undefined),6.5,23,5.0,-5%,0.4,-19,9
COc1cccc(CNC(=O)c2cccc(S(=O)(=O)N3CCN(C)CC3)c2)c1,7.1,4,5.0,-5%,5.3,-6,3
CC(=O)NC(C)Cc1cn(Cc2ccccc2)c2ccccc12 (centres undefined),-3.5,-5,-0.4,3%,-0.6,1,13
CCC(=O)n1nc(NCc2ccc(OC)c(OC)c2)nc1NCc1ccc(OC)c(OC)c1,-1.8,-6,2.3,-6%&2%,0.0,-1,6
Cc1ccc2nc(Nc3ccc4[nH]c(=O)[nH]c4c3)c(-n3nc(C)cc3C)nc2c1,0.3,25,40*,3%,2.7,-3,2
Cc1nc2oc(C(=O)c3ccccc3)c(N)c2c2c1COC(C)(C)C2,-7.6,6,1.7,31%,-2.8,3,-1
Cc1cccc(N(C(=O)c2sc(C)nc2C)C(C(=O)NCc2ccco2)c2ccccc2)c1 (centres undefined),-0.2,6,3.3,0%,1.8,0,2
CC(=O)Nc1nc2ccc(-c3nc4ccccc4o3)cc2s1,1.2,4,2.6,?,-5.0,-13,-6
COC(=O)C1=C(C)N(CCCC(=O)O)C(=O)NC1c1ccccc1OS(=O)(=O)c1ccccc1[N+](=O)[O-] (centres undefined),-1.0,-5,?,·,4.4,-11,8
C[n+]1ccn(CC(=O)c2cccs2)c1,3.7,0,-3.1,0%,-1.3,30,-4
CCCC(CCC(=O)Nc1ccn(-c2ccccc2)n1)C(=O)O (centres undefined),4.2,-1,1.3,-2%,1.9,-2,0
Cc1ccc(O)c(NC(=S)NC(=O)COc2ccc(Br)cc2)c1,0.0,2,6.0,·,5.5,1,-2
O=C(CN1C(=O)CSc2ccc(S(=O)(=O)N3CCCCC3)cc21)NCc1ccccc1Cl,-1.0,2,-2.5,1%,-0.1,2,-3
O=C(Nc1cc(C(F)(F)F)cc(C(F)(F)F)c1)c1ccc(Cn2cc(C(F)(F)F)ccc2=O)cc1,-0.3,14,-1.2,16%,-0.9,2,1
Cn1c(=O)c2c([nH]c(=O)n2C)n(C)c1=O,-0.2,0,-3.0,?,1.6,3,10
Cc1ccc2sc3ccc(NC(=O)c4ccccc4Cl)cc3c(=O)c2c1,4.7,15,114*,-42%,-1.3,-1,9
CC(=O)Nc1c(C)cc(S(C)(=O)=O)cc1C,10,-1,6.8,3%,0.5,-3,17
COc1ccccc1N1CCN(c2ncc(C(=O)N3CCN(c4cccc(Cl)c4)CC3)c3ccccc23)CC1,3.7,13,-2.7,-13%,-0.9,-2,4

# Exported with two lines to a compound: part of the list above
# Values run as follows: LANA-H2B inh	Beta2AR agonist	RanGTP-Imp inh	Vif A3G	HNF4A DNA FP	ALR H2O2 inh	Calb FLC
Cc1[nH]c2ccccc2c1SCC(=O)O
 : 6.2	-6	-3.6	13%	-1.7	34	-2
NCCN1CCN(CCN)CC1
 : ·	6	-1.0	-6%	0.1	·	-7
O=C(c1cc(COc2ccccc2)on1)N1CCCC(OCc2cccnc2)C1 (centres undefined)
 : 2.8	0	-1.8	1%	1.6	-4	1
CC1(C)C(=O)N(OCc2ccccc2)C(C)(C)C(=O)N1OCc1ccccc1
 : -8.3	-8	5.8	5%	4.7	-1	-1

# The list goes on.
SMILES,LANA-H2B inh,Beta2AR agonist,RanGTP-Imp inh,Vif A3G,HNF4A DNA FP,ALR H2O2 inh,Calb FLC
COc1ccc(S(=O)(=O)N2CCN(CCO)CC2)cc1-c1nnc2c3ccccc3c(C)nn12,0.3,-12,-6.3,-4%,-0.8,-11,-16
O=S1(=O)CCOC[C@H](CC2CCCCC2)N1Cc1ccccc1,3.0,3,0.1,·,-0.9,·,-3
COc1ccc(CCC(=O)Nc2cc(S(=O)(=O)N3CCCCC3)ccc2N(C)C)cc1,-0.1,0,·,·,2.5,-6,·
Cc1ccc(NC(=O)c2cc(Cl)nc3ccccc23)cc1,3.1,-1,3.5,22%,-1.2,-12,9
Cc1cc(OC(=O)c2ccc(OC(C)C)cc2)c([N+](=O)[O-])c(=O)[nH]1,1.9,-3,1.3,-12%,3.8,2,7
CC(=O)Nc1cccc(OC(=O)COc2ccc(Br)cc2)c1,-4.0,3,4.9,11%,-2.3,30,-6
COc1cc(CN(CC2CCCO2)C(=O)c2ccco2)cc(OC)c1OC (centres undefined),-4.5,0,1.7,·,-6.6,-2,-6
CCCN(CCC)C(=O)c1cc(S(=O)(=O)N2CCCCC2)c[nH]1,-4.1,-3,2.4,·,-5.7,-5,2
Nc1c(Cl)cc(C2=NCCn3c2c2ccc(C(F)(F)F)cc2[n+]3[O-])cc1Cl,1.4,-19,-1.6,·,-3.1,-2,34
COC(=O)N/N=C(\C)c1ccc2ccccc2c1OC(F)F,-0.4,7,-2.2,-4%,-0.8,-34,22
O=C(c1ccc(Cl)c(S(=O)(=O)NCc2cccnc2)c1)N1CCCC1,·,-3,·,2%,1.3,·,·
CCc1nnc(NS(=O)(=O)c2ccc(NC(=O)c3cc(Cl)ccc3OC)cc2)s1,-2.0,6,2.8,-3%,3.2,18,16
CC(C)(C)C(=O)COC(=O)c1cc(-c2cccnc2)nc2ccccc12,0.2,-3,1.1,·,0.4,·,-1
Cc1ccc(C(=O)NCC(=O)OCC(=O)c2ccc(C)c([N+](=O)[O-])c2)cc1,-2.3,15,-0.3,-7%,0.2,-11,5
COc1ccccc1-c1nnc(-c2ccc(F)cc2)o1,1.1,-4,3.7,·,-1.2,3,-1
O=C1CCCN1CC(O)CS(=O)(=O)Cc1ccccc1 (centres undefined),-4.1,-6,1.2,4%,0.3,-2,14
CC(NC(=O)C(C)(C)C)C(c1cccs1)N1CCN(Cc2ccccc2)CC1 (centres undefined),0.4,3,-1.8,7%,-1.5,-5,-8
COc1ccc(OC)c(CNC(=O)C(C)n2nc(C)c3c(C)n(-c4ccccc4)nc3c2=O)c1 (centres undefined),-3.4,-6,0.5,·,1.6,-5,5
CC(=O)Nc1ccccc1OC(C)C(=O)N1CCC(C)CC1 (centres undefined),-3.6,0,0.7,-1%,-3.2,-9,2
Cc1ccc(CCN2CC(C(=O)N3CCN(c4ccc(F)cc4)CC3)CC2=O)cc1 (centres undefined),22*,3,2.6,5%,-2.6,38,13
